Calb FLC – C. albicans growth inhibition with fluconazole, primary screen, CaCi-2 strain, Alamar Blue fluorescence; growth inhibition, % (no concentration beside the values); AID 1979, 2009; C. albicans CaCi-2 (fluconazole-resistant clinical isolate) + fluconazole, 48 h; 300,000 tested, 0.57% active;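 active means most replicates above 75%; inconclusive means exactly half above 75%; inactive means most below 75%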;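 further: all wells also contain fluconazole at 8 µg/ml as a sub-toxic cotreatment; 0% = median of DMSO wells and 100% = median of geldanamycin control wells; wells of about 8 µL received 7.5 nL stock; the first replicate is given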
Vif A3G – inhibitors of Vif binding to APOBEC3G peptide, primary screen, biochemical, TR-FRET, GST-Vif 1-94, biotin-A3G peptide, dose response retest (AID 1117319); Virion infectivity factor (Human immunodeficiency virus type 1 group M subtype B (isolate …; TR-FRET GST-Vif / biotin-A3G peptide binding; higher % means a stronger effect; test concentration not given here; strong numbers were not always called active; inhibition, %; hits with a dose series show IC50 in µM; 260,000 tested, 0.57% active;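 active means above the screen mean plus three standard deviations and confirmed in dose response; inconclusive means results disagree or hit not tested in dose response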;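 further: Vif residues 1-94 fused to GST binding biotinylated APOBEC3G peptide 110-148; 0% = full assay without inhibitor and 100% = GST in place of GST-Vif; retest series ran down from 100 µM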
B2AR ag – beta2AR agonists driving receptor internalization, primary screen, cell-based, FAP fluorogen, flow cytometry; Am2.2-beta2AR cells; reference of the scale not given here; 340,000 tested, 0.43% active; response, % (no concentration beside the values); Beta-2 adrenergic receptor (Homo sapiens), P07550;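 active means response above a set limit, near 3 SD of response in nonfluorescent compounds, cut at about 42% in these data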;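 further: stock transfer was 100 nL into about 11 µL; a reference agonist was the positive control; negative values mostly stem from fluorescent compounds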
Target sequence (P07550 whole entry, looked up): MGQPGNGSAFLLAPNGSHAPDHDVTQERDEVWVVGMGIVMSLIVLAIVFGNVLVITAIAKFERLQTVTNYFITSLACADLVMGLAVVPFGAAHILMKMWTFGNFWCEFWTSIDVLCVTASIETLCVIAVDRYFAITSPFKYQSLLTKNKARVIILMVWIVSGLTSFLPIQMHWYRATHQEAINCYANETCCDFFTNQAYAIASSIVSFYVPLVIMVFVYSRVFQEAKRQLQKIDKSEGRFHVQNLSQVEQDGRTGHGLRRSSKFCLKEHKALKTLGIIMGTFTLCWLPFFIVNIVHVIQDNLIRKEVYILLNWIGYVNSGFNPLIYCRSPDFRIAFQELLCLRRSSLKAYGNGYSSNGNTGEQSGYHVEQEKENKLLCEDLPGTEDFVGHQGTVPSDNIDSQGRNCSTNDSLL
RanGTP-Impb inh – inhibitors of RanGTP-importin-beta interaction, primary screen, biochemical, FRET, CFP-Ran, YFP-importin-beta, homogeneous | Ran GTPase (GTP-bound) - importin-beta complex | cell-free CFP-Ran/YFP-importin-beta FRET ratio | inhibition, % (test concentration not listed) | 300,000 tested, 1.1% active | AID 2216, 2009;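 active means most replicates above 15%; inconclusive means exactly half above 15%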;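 further: 0% = DMSO wells and 100% = Ran loaded with GDP instead of GTP; wells of about 40 µL received 100 nL stock; the first replicate is given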
HNF4A DNA FP – change in binding of human HNF4A to DNA, primary screen, biochemical, fluorescence polarization, FITC-DNA | activity change, % at 10 µM | 360,000 tested, 0.3% active | AID 1224865, 2016 | Hepatocyte nuclear factor 4-alpha (Homo sapiens), P41235 | 1 h; in the data active means activity change above about 30%, passing the limit was not always enough;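 further: controls were the assay level and a saturating level of protein; the project sought stronger binding though the title names inhibitors; some compounds called inactive have numbers as strong as hits; positive values seem to mean higher polarization but the record does not say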
Target sequence (P41235 whole entry, looked up): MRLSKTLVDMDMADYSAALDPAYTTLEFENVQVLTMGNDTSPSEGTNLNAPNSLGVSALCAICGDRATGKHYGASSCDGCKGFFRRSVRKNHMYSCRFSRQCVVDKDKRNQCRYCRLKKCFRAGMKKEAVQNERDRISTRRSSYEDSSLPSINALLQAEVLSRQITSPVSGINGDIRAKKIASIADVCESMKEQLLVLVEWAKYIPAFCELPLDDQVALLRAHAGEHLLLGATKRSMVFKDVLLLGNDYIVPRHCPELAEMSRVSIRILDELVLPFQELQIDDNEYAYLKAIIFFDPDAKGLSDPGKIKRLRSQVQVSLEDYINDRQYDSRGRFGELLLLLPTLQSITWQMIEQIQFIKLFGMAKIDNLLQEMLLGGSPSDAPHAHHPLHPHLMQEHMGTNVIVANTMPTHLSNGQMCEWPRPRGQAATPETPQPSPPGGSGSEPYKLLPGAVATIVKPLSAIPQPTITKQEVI
ALR inh – inhibitors of human ALR sulfhydryl oxidase, primary screen, biochemical, H2O2 detection, HRP-luminol luminescence, single point; inhibition, % (no concentration beside the values); 290,000 tested, 3.8% active; purified ALR, DTT oxidation; FAD-linked sulfhydryl oxidase ALR (Homo sapiens), P55789;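 active means mean and each replicate at 75% or more; inconclusive means only one of the two met; inactive means neither met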;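 further: stock transfer was 7.5 nL into about 7.5 µL; 0% = neutral wells and 100% = wells with inactivated enzyme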
Target sequence (P55789 whole entry, looked up): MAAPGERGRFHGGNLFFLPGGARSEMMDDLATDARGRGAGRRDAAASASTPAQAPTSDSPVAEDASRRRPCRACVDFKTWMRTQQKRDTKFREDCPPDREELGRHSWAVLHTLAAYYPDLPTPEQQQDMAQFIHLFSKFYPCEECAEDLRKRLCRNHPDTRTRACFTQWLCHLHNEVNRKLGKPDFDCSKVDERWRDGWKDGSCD
LANA-H2B inh – blockers of LANA interaction with H2A/H2B – biochemical, FP readout, HTS, primary screen; Protein LANA1 (Human herpesvirus 8 type P (isolate GK18)), Q9QR71; cell-free LANA-H2A/H2B peptide, fluorescence polarization; inhibition, % (concentration not given with the values); 320,000 tested, 0.6% active; AID 2629, 2010; in the data active means inhibition mostly above about 10%, no sharp cut-off; inactive means mostly below about 6.7%;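 further: stock transfer was 7.5 nL into about 10 µL; 0% = median of vehicle wells and 100% = median of positive control wells; one replicate is shown; the record names a cut of 25% in any replicate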
Active calls of the source: *; ? = inconclusive; nt = no result given; & = joins results of further samples.

Preview (2 entries):
SMILES	Calb FLC	Vif A3G	B2AR ag	RanGTP-Impb inh	HNF4A DNA FP	ALR inh	LANA-H2B inh
Cc1ccccc1C(=O)NCC(=O)OC(C)C(=O)Nc1ccnn1C(C)C (stereo not given)	0	-4%	5	0.4	1.4	-19	-0.1
CCn1cc(/C=C(\NC(=O)c2ccc(OC)c(OC)c2)C(=O)N2CCN(C)CC2)c2ccccc21	-1	-4%	-2	0.9	-2.8	45	-3.4

Results, previewed entries included:
SMILES	Calb FLC	Vif A3G	B2AR ag	RanGTP-Impb inh	HNF4A DNA FP	ALR inh	LANA-H2B inh
Cc1ccccc1C(=O)NCC(=O)OC(C)C(=O)Nc1ccnn1C(C)C (stereo not given)	0	-4%	5	0.4	1.4	-19	-0.1
CCn1cc(/C=C(\NC(=O)c2ccc(OC)c(OC)c2)C(=O)N2CCN(C)CC2)c2ccccc21	-1	-4%	-2	0.9	-2.8	45	-3.4
COc1ccc2[nH]c(C)c(CN3CCCCC3)c(=O)c2c1	3	nt	-4	5.6	0.4	3	-1.8
c1ccc(Cn2c3ccccc3c3nnc(SCCN4CCCCC4)nc32)cc1	8	nt	-10	5.9	-4.3	2	4.3
COC(=O)c1ccccc1S(=O)(=O)N(CCCO)Cc1cc2c(C)ccc(C)c2[nH]c1=O	11	-5%	3	-1.3	-3.1	nt	nt
Cc1cccc(C(=O)Oc2ccc(/C=N/NC(=O)c3ccncc3)cc2)c1	13	-10%	4	1.7	-2.0	44	-3.0
CCOC(=O)c1sc(NC(=O)CSC(=S)N2CCOCC2)nc1C	2	18%	2	-0.4	6.2	18	0.9
O=C1[C@H]2[C@@H](C3CC3)N3C(=O)CN(Cc4ccccn4)C(=O)[C@@]3(Cc3ccccc3)[C@H]2C(=O)N1c1ccccc1	-10	nt	7	0.3	1.7	3	0.6
CCn1c(O)c(C#N)c(C)cc1=O	1	-1%	-6	-5.6	-2.7	-22	3.7
O=C(/C=C/c1ccccc1)NCCS(=O)(=O)N1CCN(c2ccc(F)cc2)CC1	-2	-6%	1	0.5	0.6	-1	0.9
CC(OC(=O)CNC(=O)c1ccco1)C(=O)N(C)c1ccccc1 (stereo not given)	3	8%	2	-0.2	1.9	3	-6.4
O=C(NCc1cccnc1)c1ccc(Cl)c(S(=O)(=O)Nc2ccccc2C(=O)NCc2cccnc2)c1	-11	4%	0	-2.0	-0.6	-13	-0.2
CCn1nc(C)c(Br)c1C(=O)Sc1ccccc1Cl	-2	13%	1	6.0	-2.4	nt	-0.7
Cc1cccc(Cn2nnc3ccccc32)c1O	24	nt	0	-4.5	3.1	90*	-3.0
CCCCCC(=O)N/N=C/c1ccccc1[N+](=O)[O-]	-24	-8%	2	-0.1	1.7	-7	7.6
COc1ccc(-c2n[nH]c3c2CN(C(=O)c2ccc(F)cc2)CC3)cc1	2	-10%	0	1.5	3.0	-5	-0.3
C=CCn1c(SCC(=O)Nc2ccc(F)cc2F)nnc1-c1cnccn1	3	nt	-1	?	-2.6	-32	9.7
O=S(=O)(c1cccc2nsnc12)N1CCN(C/C=C\c2ccccc2)CC1	2	?	-2	-1.1	-1.4	-4	2.0
CC(=O)N1CCN(C(=O)c2ccc(-c3ccccc3Cl)o2)CC1	nt	1%	-5	nt	-5.1	-5	-0.3
C=CCNC(=S)N1CCN(Cc2ccc3c(c2)OCO3)CC1	-21	nt	-1	6.1	3.5	-16	-0.2
COc1ccc(C#Cc2c(-c3ccc(OC)cc3)oc3ccc(-c4ccc5c(c4)OCO5)cc23)cc1	5	nt	3	-0.3	-0.3	nt	0.8
O=C(OCC(=O)c1ccccc1Cl)c1cnccn1	2	nt	-1	2.1	-1.2	0	-11
CCOc1cc(/C=N/NC(=O)c2nnn(-c3nonc3N)c2C)ccc1OCc1cccc(F)c1	7	nt	4	-0.5	1.4	nt	-0.4
COC(=O)CSc1nnc2c3c4c(sc3nc(-n3nc(C)cc3C)n12)COC(C)(C)C4	-1	-2%	-6	2.1	3.0	nt	-3.1
COc1ccc(NC(=O)CN(C)C(=O)c2cccc(S(=O)(=O)N3CC4(C)CC3CC(C)(C)C4)c2)cc1 (stereo not given)	-2	1%	4	-3.5	2.3	-72	-1.4
(cont.)
SMILES	Calb FLC	Vif A3G	B2AR ag	RanGTP-Impb inh	HNF4A DNA FP	ALR inh	LANA-H2B inh
NS(=O)(=O)c1cc2c(cc1Cl)NC(C1C[C@H]3C=C[C@@H]1C3)NS2(=O)=O (stereo not given in full)	4	4%	-4	4.9	-2.9	-6	0.4&-33
Cc1c(Br)c(C(F)(F)F)nn1CC(=O)N(C)C1CCCCC1	-5	-1%	-5	2.4	4.6	-14	-1.6
COCCn1c(SCC(=O)Nc2ccc(NC(C)=O)cc2)nc2c([nH]c3ccccc32)c1=O	nt	1%	-10	nt	0.3	7	-0.5
Cc1ccc(N2C(=O)N(CC(=O)NC(c3ccccc3)c3ccccc3)C(=O)C2C)cc1 (stereo not given)	1	0%	2	3.0	-1.3	-8	1.3
COc1ccc(/C=C/C(=O)N(C)C2CCCCC2)cc1Br	-4	3%	4	-2.0	-1.1	nt	5.4
O=C(/C=C/c1ccccc1Cl)OCC(=O)c1ccc[nH]1	nt	9%	5	nt	0.9	-2	2.5
Cc1cc(Oc2ccccc2)nc(N2CCOCC2)n1	?	6%	2	-0.3	1.7	-9	-1.8
Cc1c(Nc2cc(Cl)c3nonc3c2[N+](=O)[O-])c(=O)n(-c2ccccc2)n1C	nt	?	89*	nt	-3.8	nt	nt
CCOC(=O)c1sc(C(=O)OCC)c(OCCO)c1OCCO	0	6%	6	-1.2	4.4	nt	-2.4
Cc1oc2cc(Br)c(O)c(Br)c2c1-c1ccccc1	6	-2%	3	-3.5	-1.3	24	-2.9
O=C(CCc1nnc(CCC2CCCCC2)o1)NCCc1ccccn1	-5	5%	1	8.7	0.5	-9	-1.2
CCOC(=O)CSC1=C(C#N)C(=O)NC2(CCCCC2)S1	-6	-4%	3	-0.2	1.8	98*	0.3
CCOc1ccc2c(c1)C(=O)c1cc(OCC(=O)O)ccc1-2	-1	nt	13	1.4	-3.8	5	7.9
Cc1ccc(C(=O)C(=O)c2ccc(C)c(N)c2)cc1N	-9	nt	1	2.2	-1.5	-5	0.9
COc1ccc([N+](=O)[O-])c(S(=O)(=O)c2ccc(Cl)cc2)n1	-37	nt	41	3.3	5.0	75*	-5.2
COc1ccc(NC(=O)C2=CN3CCS(=O)(=O)N=C3C=C2)c(OC)c1	nt	?	-3	nt	1.1	-14	-19
COc1ccc(C2=NOC(COc3ccc([N+](=O)[O-])cc3)C2)cc1 (stereo not given)	1	-10%	-6	4.3	-1.6	-14	4.0
O=C(/C=C/c1ccc([N+](=O)[O-])cc1)c1ccco1	5	nt	5	-2.3	-1.7	9	-6.4
O=C(Nc1ncccn1)c1ccc([N+](=O)[O-])o1	7	14%	-2	-13	78*	-48	-19
O=C(COC(=O)C1=COCCO1)Nc1ccc(F)cc1	-3	6%	0	3.1	-5.7	0	13
C/C(=N\NC(=O)c1ccccc1O)c1ccc(Br)s1	20	nt	-5	-2.8	0.3	1	-0.6
CN(C)C(/C=C/Nc1ccc(F)cc1)=C(C#N)C#N	5	-2%	4	-2.2	-4.2	1	2.2
Cc1ccc(S(=O)(=O)Nc2nc(N)n(-c3ccccc3)n2)cc1	-6	-2%	4	0.5	-2.1	6	9.8
COc1ccccc1OCCNC(=O)c1cccc(S(=O)(=O)NCc2ccccc2)c1	nt	-3%	-4	nt	1.4	-7	-0.7
C/C(=N\NC(=O)c1cc(-c2ccc(Br)s2)[nH]n1)c1ccncc1	14	nt	5	?	-1.1	-5	3.3
Additional results follow.
SMILES	Calb FLC	Vif A3G	B2AR ag	RanGTP-Impb inh	HNF4A DNA FP	ALR inh	LANA-H2B inh
CNC(=S)N1CCn2cccc2C1c1cc(OC)c(OC)c(OC)c1 (stereo not given)	-5	-2%	7	-1.7	0.9	4	0.4
CCOC(=O)COc1ccc(S(=O)(=O)NC2CC2)cc1	1	nt	8	-5.8	-2.5	-14	5.8
CCCNC(=O)Cn1c(=O)/c(=C/c2ccc(-c3cccc([N+](=O)[O-])c3)o2)s/c1=C\C(=O)C(C)(C)C	nt	7%	-11	nt	-49	nt	nt
CCN(CC)CCC(c1cc(OC)c(OC)c(OC)c1)c1c(OC)cc(OC)c2ccc(=O)oc12 (stereo not given)	-18	0%	1	3.2	5.3	-5	-1.5
C/C(=N\O)c1ccccc1C(=O)O	2	-8%	-5	-1.5	1.4	-2	-0.9
COc1cccc2sc3cc(NCc4ccc5c(c4)OCO5)ccc3c(=O)c12	nt	nt	19	nt	1.0	-3	3.3
O=C(c1cccc(S(=O)(=O)Nc2ccc(F)cc2)c1)N1CCCC1	nt	?	8	nt	-1.4	-1	-4.0
CCNC(=S)NNC(=O)c1cc(Br)cs1	6	nt	5	8.4	-1.5	72	1.5
CCCCCCC(=O)Oc1ccc(N2C(=O)CCC2=O)cc1	8	9%	-5	5.9	2.5	1	0.7
CCn1c(CNC(=O)c2cccc(C)c2)nnc1SCC(=O)Nc1cccc(OC)c1	?	2%	-7	-1.5	-6.1	nt	2.9
CCOc1ccccc1NC(=O)CSc1nc(N)c(C#N)cc1C#N	6	-87%	19	3.8	8.0	-3	-0.1
CCOC(=O)c1cc2c(ccn2C)n1Cc1ccc(C#N)cc1	0	0%	1	3.9	-0.1	-9	1.8
Cc1ccc(CNC(=O)c2ccc(Cl)cc2[N+](=O)[O-])cc1	-9	7%	2	0.5	0.4	-5	0.7
CCN(C(=O)CSc1nnc(-c2cccs2)o1)C1CCS(=O)(=O)C1 (stereo not given)	-1	nt	0	-0.1	-2.9	-16	0.3
Cc1cccc(C)c1NC(=O)C/C(N)=N/O	-5	-2%	-2	-2.4	1.9	-10	-1.8
CCOC(=O)N1CCN(c2nc(-c3ccccc3)c3ccccc3n2)CC1	-7	-4%	-12	18*	-1.2	-9	0.7
CCCCN1C(=O)N(C)C2NC(=O)NC21 (stereo not given)	-3	16%	2	2.9	0.3	-4	-3.6
Cc1nc(SCC(=O)Nc2nccs2)c(C#N)c(C)c1C	nt	-31%	-3	nt	0.6	-6	-1.8
COc1ccc(-c2cn(-c3ccccc3)nc2CO)cc1	-5	nt	-27	0.6	3.2	97*	-1.3
Cc1ccccc1/C=C\c1nc(O)c([N+](=O)[O-])c(=O)[nH]1	1	-3%	6	2.7	1.6	20	-0.7
CCCC[C@@H]1CN=C(N)N1CCCC	-11	nt	-5	5.6	4.3	5	-0.5
O=C(CN(CC1CCCO1)C(=O)CNS(=O)(=O)c1ccc(Cl)cc1)NC1CCCCC1 (stereo not given)	13	0%	-7	2.0	2.1	nt	-4.5
CCN1CCN(CCNC(=O)CCCn2nc(C)c3c(C)n(-c4ccc(C)cc4)nc3c2=O)CC1	-20	nt	-8	-0.2	6.5	-2	-2.7
CCc1cccc(C)c1NC(=O)CCNC(=O)c1cccc(C)c1	2	-1%	2	-3.2	1.0	0	12
C/C(=N\NC(=O)c1nnn(-c2nonc2N)c1C)c1ccc(OCc2ccccc2)cc1	-12	nt	10	-2.7	1.1	nt	-4.2
CN(C)/C=C1/C(=O)N(c2ccc([N+](=O)[O-])cc2)N=C1c1ccccc1	7	nt	nt	?	nt	40	-5.6
Cc1ccc(-c2nc(-c3ccncc3)no2)cc1	-18	nt	-5	0.1	2.5	8	-1.8
O=S(=O)(NCC1CCCO1)c1ccc(Oc2ccccc2)cc1 (stereo not given)	3	6%	-7	-4.7	4.1	-11	1.9

Bioassay records: PubChem BioAssay, several laboratories
